# Mtb growth: M. tuberculosis H37Rv growth inhibitors, H37Rv strain (AID 1626). M. tuberculosis H37Rv growth inhibition; higher % means a stronger effect. inhibition, % at 10 µM, or IC50 in µM where a hit was titrated. actives 0.95% (n = 220,000);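 active means confirmed in a dose series; inconclusive means inhibition above 80% but not taken into the dose series; inactive means below 80% or under 30% at every dose of the series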;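 further: bacteria incubated seven days before Alamar blue readout; 0% = bacteria only wells and 100% = bacteria with antibiotic wells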
# YopH inh: blocks Yersinia enterocolitica YopH tyrosine phosphatase. fluorescence Ex485/Em525. actives 0.16% (n = 140,000). inhibition, %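 (about 10 µM by stock and volumes)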. AID 898;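 active means inhibition of 50% or more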;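 further: controls were vehicle for no effect and minimum signal wells for full effect; inactives centre near -20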
# Arbovirus inh: arbovirus infection inhibition; arbovirus infection cell-based antiviral screen; inhibition, % at 10 µM; actives 0.37% (n = 200,000); AID 1251;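 active means inhibition from about 30%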;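 further: bluetongue infection of BSR cells; cell survival read as ATP light after 72 h; 0% = infected wells without compound and 100% = uninfected wells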
# Mtb bLac sens: beta-lactam sensitization of Mtb H37Rv | M. tuberculosis H37Rv growth with meropenem, percent inhibition; hits of this screen are not shown here | inhibition, % at 25 µM | actives 0.27% (n = 330,000);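 active means about 74% or more and at least 40 points above the plate without the antibiotic, then above 30% in a dose series; inconclusive means first-round hits that could not be retested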;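 further: growth measured after seven days incubation then overnight dye step; 0% = bacteria only wells and 100% = bacteria with antibiotic; twin plates without the antibiotic show which effects depend on it; some results filed as inactive read as strong as hits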
# RecA splice inh: blocks M. tuberculosis RecA intein splicing; AID 2221; actives 0.75% (n = 290,000); P9WHJ3; inhibition, %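 (about 9 µM by stock and volumes)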; cell-free RecA intein splicing, fluorescence; in the data active means inhibition above about 30%; inconclusive means no clear call, values can overlap the other calls;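 further: 0% = vehicle wells and 100% = reference inhibitor control wells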
# Target sequence (P9WHJ3 whole entry, looked up, canonical isoform): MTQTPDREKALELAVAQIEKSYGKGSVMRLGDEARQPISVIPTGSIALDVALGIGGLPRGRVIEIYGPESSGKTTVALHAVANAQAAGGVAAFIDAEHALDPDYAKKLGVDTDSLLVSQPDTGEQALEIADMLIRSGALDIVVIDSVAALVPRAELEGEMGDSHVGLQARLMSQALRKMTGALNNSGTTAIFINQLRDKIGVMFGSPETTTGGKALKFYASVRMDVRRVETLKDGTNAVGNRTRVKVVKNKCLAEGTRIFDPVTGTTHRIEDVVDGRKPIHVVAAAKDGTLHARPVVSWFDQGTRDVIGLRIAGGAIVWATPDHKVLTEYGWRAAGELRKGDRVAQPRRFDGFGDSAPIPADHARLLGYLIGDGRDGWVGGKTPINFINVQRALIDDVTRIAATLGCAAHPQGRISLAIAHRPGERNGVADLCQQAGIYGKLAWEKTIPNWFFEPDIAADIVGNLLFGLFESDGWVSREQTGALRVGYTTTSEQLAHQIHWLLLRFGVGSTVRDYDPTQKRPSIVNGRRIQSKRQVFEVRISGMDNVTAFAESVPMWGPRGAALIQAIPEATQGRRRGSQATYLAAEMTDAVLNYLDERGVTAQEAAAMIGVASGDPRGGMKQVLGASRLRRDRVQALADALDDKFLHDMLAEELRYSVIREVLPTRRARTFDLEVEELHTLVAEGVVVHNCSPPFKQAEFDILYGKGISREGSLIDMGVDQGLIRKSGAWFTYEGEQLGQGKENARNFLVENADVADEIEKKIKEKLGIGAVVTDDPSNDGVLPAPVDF
# Arbovirus inh repeat: further read-out of Arbovirus inh, marked with its call; inhibition, %; measured here: 10K subset replicate screen; many hits read low in the repeat;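 first of two repeat runs on a subset; 0% = infected and 100% = uninfected wells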
# Active calls of the source: *; ? = inconclusive; . = not tested or not shown.
SMILES,Mtb growth,YopH inh,Arbovirus inh,Mtb bLac sens,RecA splice inh,others
O=C(Nc1cc(S(=O)(=O)N2CCOCC2)ccc1O)c1ccco1,-1%,-7,0,4,-5.4,
COc1ccccc1N1CCN(C(=O)c2cc(-c3ccc(Br)cc3)on2)CC1,5%,-22,2,8,0.0,
NCCc1nnc(SCc2ccccc2)o1,2%,-47,0,3,-1.7,
NC(=O)NC(=O)COC(=O)/C=C/c1cccc(Br)c1,-4%,.,-2,-2,-1.0,
CC(=O)NCCOc1c(C)cc(S(N)(=O)=O)cc1C,-4%,-34,3,6,-2.0,Arbovirus inh repeat=-1
Cc1ccc(CNc2ccc3c(c2)ncn3C)cc1,54%,-21,2,0,-1.6,
CC(=O)c1cccc(NC(=S)Nc2cccc3ccccc23)c1,.,.,.,-17,2.1,
CCN(C(=O)COC(=O)c1cc([N+](=O)[O-])ccc1N1CCCCC1)C1CCS(=O)(=O)C1 (centres undefined),-2%,.,-1,-13,2.9,
CCN(Cc1ccccc1)S(=O)(=O)c1ccc(F)cc1,.,.,.,1,3.2,
Cc1ccc(NC(=O)CCNS(=O)(=O)c2ccc(Br)cc2)cc1S(=O)(=O)N1CCOCC1,.,.,.,-9,-3.0,
C#CCN1C(=O)S/C(=C/c2cc(C)n(CC)c2C)C1=O,-3%,-15,0,0,-0.6,
O=C(OC1CCOC1=O)c1cc(-c2cccs2)nc2ccccc12 (centres undefined),-9%,.,1,-7,-49,
COc1ccc(CN2C3CCCC2CC(NC(=O)/C=C/c2ccccc2)C3)cc1 (centres undefined),-2%,.,-12,2,-2.3,
CNc1ccccc1C(C)(C)c1ccn[nH]1,6%,.,1,4,0.6,
CC1(C)CC(=O)C(c2c[nH]c3ccccc23)C(=O)C1,-7%,.,-2,0,-3.6,
CCCCCCCc1c(C#N)c(N)[nH]c(=S)c1C#N,2%,.,.,-5,9.5,
O=C(c1ccc2ccccc2c1)C1CCCN(C(=O)c2noc3c2CCCC3)C1 (centres undefined),7%,.,24,-5,6.7,
C#CCSc1ncc(-c2ccccc2)cn1,1%,.,-3,94,2.9,
COc1ccc(C2NC(=O)C(C)S2)cc1 (centres undefined),-3%,3,-9,-7,-0.4,
CCOc1ccc(N(CC)C(=O)CCNC(=O)Cn2ccc3ccccc3c2=O)cc1,-3%,5,6,-3,2.6,
COCCCN(C(=O)CCOc1ccc(C)cc1)c1c(N)n(Cc2ccccc2)c(=O)[nH]c1=O,.,.,.,-1,-2.2,
CCOc1ccccc1NC(=O)CCC(=O)Nc1ccc2nc(N3CCN(C)CC3)cc(C)c2c1,.,-41,10,-4,-1.6,
Cc1cc(-n2c(C)cc(C(=O)CSc3nc4ccccc4c(=O)n3Cc3ccco3)c2C)no1,-3%,-153,15,-11,-1.7,
Cc1ccc(-c2nc(CS(=O)CC(=O)NCCN3CCCCCC3)c(C)o2)cc1 (centres undefined),.,.,.,3,1.0,
O=C(c1cc(-c2ccccc2)on1)N1CCCCCC1,.,.,.,-1,3.1,
COC(=O)C1=C(C)NC(=O)NC1c1ccc(N2CCC(c3ccccc3)=N2)cc1 (centres undefined),34%,.,-6,-3,-5.6,
O=C(Nc1ccc(S(=O)(=O)N2CCCCC2)cc1)C1CCN(C(=O)c2ccc(F)cc2)CC1,.,.,.,2,-0.3,
CC(C)NC(=O)NC(=O)COC(=O)c1ccc([N+](=O)[O-])cc1Cl,80%,.,1,3,-3.7,
COc1ccc(C(=O)Nc2nc(C)c(C)s2)cc1OC,-5%,-28,7,-8,2.1,
CCC(=O)c1ccc(N2CCN(S(=O)(=O)c3ccccc3)CC2)c(F)c1,7%,.,5,21,0.7,
CCOc1ccc(C(=O)NCC(=O)OCc2cc(C(C)=O)ccc2OC)cc1,6%,-13,3,-11,0.2,
O=C(c1ccco1)N1CCN(Cc2cccc(C(F)(F)F)c2)CC1,.,.,.,6,1.5,
COc1ccc(NC(=O)C(=O)NCC2CCCN2S(=O)(=O)c2ccc(C)cc2)cc1 (centres undefined),.,.,.,-12,-1.2,
Cc1cccc(Oc2nc3ccccn3c(=O)c2/C=C(\C#N)C(=O)NC2CCS(=O)(=O)C2)c1C (centres undefined),.,.,.,2,-24,
Cc1ccc(C(=O)OCC(=O)c2c[nH]c3ccccc23)cc1,6%,-12,7,3,1.9,
COc1ccc(OC)c(NC(=O)CSc2ccc(-c3cccnc3)nn2)c1,.,.,.,-8,-0.4,
CCCn1c(N)c(C(=O)CSc2nnc(Cc3ccccc3)o2)c(=O)n(C)c1=O,-4%,-1,4,-7,-0.1,
CCn1ccnc1CN1CCC(CO)(CCOc2ccccc2)CC1,-1%,.,-10,-7,.,
N#CCc1ccc(OC(=O)c2cccnc2)cc1,-8%,.,.,-3,0.5,
CC(C)CC(=O)Nc1nc2ccc(S(C)(=O)=O)cc2s1,-1%,.,-7,1,-1.6,
O=C(N/N=C/c1ccc2c(c1)OCO2)C1COc2ccccc2O1 (centres undefined),18%,6,-7,-7,-1.0,
CC(=O)OC(C)(C)C#CCN1CCCC1,-9%,-26,0,-2,0.4,
O=C(CCC1CCCN(c2ncccn2)C1)NCc1ccc(F)c(F)c1 (centres undefined),-3%,.,-4,2,0.4,
O=c1[nH]c(CSc2ncc(-c3ccc(F)cc3)n2Cc2ccco2)nc2ccccc12,-2%,-57,9,2,1.3,
CCOc1ccc(N(CC(=O)OC)S(=O)(=O)c2c(C)noc2C)cc1,-9%,-47,7,-4,0.7,Arbovirus inh repeat=1
O=C(c1cnccn1)N1CCN(c2ccccc2)CC1,.,0,5,-10,-0.8,
COC1CC(C)NC(=S)N1 (centres undefined),-3%,.,.,3,1.2,
Cc1cc(Nc2cccc(Br)c2)c2ccccc2n1,.,.,.,-10,0.9,
CCOC(=O)c1c(S(=O)(=O)Nc2ccc(F)cc2Cl)c(C)n(C)c1C,.,.,.,-3,-1.1,
Cc1cc(C)nc(N2CCN(S(=O)(=O)c3ccc(F)cc3)CC2)n1,.,.,.,-2,0.3,
O=C(Cn1nc(C(F)F)cc1C(F)F)NNC(=S)Nc1ccc(F)cc1,-15%,-12,10,3,.,
CC1(C)Cc2cccc(OCC(=O)NCCOc3ccccc3)c2O1,2%,.,2,-7,-4.2,
COc1ccc(CCN2CC(C(=O)Nc3ccc4c(c3)OCO4)CC2=O)cc1OC (centres undefined),-11%,.,10,-1,0.2,
COc1ccc(S(=O)(=O)N(C)C)cc1NC(=O)COC(=O)c1nc2nccc(C)n2n1,12%,.,.,-7,-1.0,
Cc1cccc(C(C)C)c1NC(=O)Cc1ccc(S(=O)(=O)N2CCOCC2)s1,.,.,.,-9,-3.9,
Cc1c(OCC(=O)NCc2ccccn2)ccc2c(-c3ccccc3)cc(=O)oc12,.,.,.,-1,-0.3,
Cc1cc(N/N=C/c2cccc([N+](=O)[O-])c2)nc(-n2nc(C)cc2C)n1,?,.,.,92,-2.0,
Cc1cccc(C)c1NC(=O)CNC(=O)CNC(=O)c1ccc2c(c1)OCO2,.,.,.,-9,-0.9,
CCN(CC)CCNC(=O)Cn1nc(Cc2ccncc2)c2ccccc2c1=O,.,.,.,5,-2.3,
COc1cc(C(=O)NCc2cccc(Cl)c2)ccc1OCC(=O)N1CCOCC1,.,.,.,-7,1.0,

# Arranged by molar mass (highest first): some entries from above.
SMILES,Mtb growth,YopH inh,Arbovirus inh,Mtb bLac sens,RecA splice inh,others
CCN(CC)CCNC(=O)Cn1nc(Cc2ccncc2)c2ccccc2c1=O,.,.,.,5,-2.3,
Cc1cccc(C)c1NC(=O)CNC(=O)CNC(=O)c1ccc2c(c1)OCO2,.,.,.,-9,-0.9,
Cc1cc(C)nc(N2CCN(S(=O)(=O)c3ccc(F)cc3)CC2)n1,.,.,.,-2,0.3,

# (list continues)
SMILES,Mtb growth,YopH inh,Arbovirus inh,Mtb bLac sens,RecA splice inh,others
Cc1ccc(NS(=O)(=O)c2ccc3c(c2)CC(=O)N3)c(C)c1,.,.,.,1,0.5,
CCOC(=O)c1c(S(=O)(=O)N2CCCC(C(=O)Nc3ccc(C)cn3)C2)c(C)n(C)c1C (centres undefined),.,.,.,-1,-2.3,
Cc1oc(-c2ccccc2)nc1C(=O)N1CCN(c2ccc(F)cc2)CC1,0%,.,4,1,1.2,
c1ccc2sc(SCSc3nc4ccccc4s3)nc2c1,1%,.,.,1,2.5,
COc1ccc(-c2cc(C(F)(F)F)nc(SCC(N)=O)n2)cc1,-16%,-13,-2,1,1.3,
COc1cc(/C=N/NC(=O)c2ccncc2)ccc1OCC(=O)Nc1cccc([N+](=O)[O-])c1,.,.,.,96,0.4,
O=c1cc(CSc2n[nH]c(-c3ccncc3)n2)nc2sccn12,1%,.,5,5,-9.3,
Cc1cc(C)cc(NC(=S)N(CCN(C)C)Cc2cccs2)c1,-22%,.,18,-5,-0.5,
CCSc1ncc(C#N)c(=O)[nH]1,5%,-8,3,4,0.1,
Cn1nnnc1NCc1ccccc1F,.,.,.,-5,1.8,
CC(OC(=O)c1nn(C)c(=O)c2ccccc12)C(=O)NCc1ccc2c(c1)OCO2 (centres undefined),-5%,-7,-3,5,3.3,
Cc1ccc(S(=O)(=O)N2CCN(C(=O)COC(=O)CCOc3cc(C)ccc3C)CC2)cc1,.,.,.,3,1.8,
COc1ccc(/C=N/OCC(=O)N=Nc2c(O)[nH]c3ccc(Br)cc23)cc1OC,-1%,-27,-29,6,.,
Cc1[nH]c2ccccc2c1-c1ccc(Cl)nn1,0%,.,-2,-5,3.4,
N#CC1(c2ccccc2)CCC(=O)N1c1ccccc1 (centres undefined),-4%,.,.,-5,-0.5,
CC1CCCC(C)N1C(=O)Cn1nnc(-c2ccccc2)n1 (centres undefined),.,.,.,-2,-0.9,
CCN1CCN(C(=O)Cn2nc(C)c3sc4ccccc4c3c2=O)CC1,.,.,.,1,-0.1,
CCN1CCN(c2ncc(C(=O)Nc3ccccc3C(=O)OC)c3ccccc23)CC1,2%,-61,-6,-8,2.5,
O=C(NCc1ccccc1Cl)c1ccc(CS(=O)Cc2ccc(Cl)cc2)o1 (centres undefined),.,.,.,4,4.6,
O=C(c1cccc(F)c1)N1CCCC(C(=O)N2CCCCCC2)C1 (centres undefined),.,.,.,-2,-4.5,

# Six successive entries already listed, quoted:
SMILES,Mtb growth,YopH inh,Arbovirus inh,Mtb bLac sens,RecA splice inh,others
Cc1ccc(NS(=O)(=O)c2ccc3c(c2)CC(=O)N3)c(C)c1,.,.,.,1,0.5,
CCOC(=O)c1c(S(=O)(=O)N2CCCC(C(=O)Nc3ccc(C)cn3)C2)c(C)n(C)c1C (centres undefined),.,.,.,-1,-2.3,
Cc1oc(-c2ccccc2)nc1C(=O)N1CCN(c2ccc(F)cc2)CC1,0%,.,4,1,1.2,
c1ccc2sc(SCSc3nc4ccccc4s3)nc2c1,1%,.,.,1,2.5,
COc1ccc(-c2cc(C(F)(F)F)nc(SCC(N)=O)n2)cc1,-16%,-13,-2,1,1.3,
COc1cc(/C=N/NC(=O)c2ccncc2)ccc1OCC(=O)Nc1cccc([N+](=O)[O-])c1,.,.,.,96,0.4,

# Next compounds.
SMILES,Mtb growth,YopH inh,Arbovirus inh,Mtb bLac sens,RecA splice inh,others
N#Cc1cn(CCCOc2ccccc2)c2ccccc12,9%,38,-10,-12,.,
CCOC(=O)c1c(NC(C)=O)sc(C(=O)NC2CCCC2)c1C,.,.,.,2,-2.7,
Cc1nc(-c2ccc(C(=O)Nc3cccc(Br)c3)cc2)cs1,6%,.,-10,-2,2.6,
Cc1ccc2nc3c(c(C(=O)OC4CCOC4=O)c2c1)CCCC3 (centres undefined),-4%,.,-2,-1,-0.8,
COc1ccc(OC)c(C(=O)c2coc3ccc(O)c(CN(C)C)c23)c1,.,.,.,-1,12,
CC1CCCC(C)N1C(=O)COc1ccccc1F (centres undefined),-5%,.,-1,3,0.6,
O=[N+]([O-])c1cccnc1Sc1ccc(Cl)cc1,.,.,.,-4,-0.7,
Cc1nnsc1C(=O)Nc1ccc(Cl)cc1Cl,-6%,-39,-6,-3,-2.6,
CCCC(c1nnnn1C(C)(C)C)N1CCN(Cc2ccccc2)CC1 (centres undefined),0%,.,3,0,-0.4,
Fc1ccccc1NC(=S)NC1CCCC1,.,.,.,-3,-0.7,
COc1cc(NC(=O)Cn2c(=O)n(-c3cccc(C)c3)c(=O)c3c(C)c(C)sc32)cc(OC)c1,0%,-31,-11,4,0.6,
O=C(O)COc1ccccc1/C=C1\SC(=S)N(/N=C/c2ccccc2O)C1=O,-13%,-34,-3,2,-2.4,
O=C(CSc1nnnn1-c1ccc(O)cc1)c1cc2ccccc2o1,11%,.,.,-1,11,
CC(C)NC(=O)NC(=O)COC(=O)CCOc1ccccc1,-4%,-10,-2,1,-1.6,

# Of the compounds above, 2 have a CF3 group.
SMILES,Mtb growth,YopH inh,Arbovirus inh,Mtb bLac sens,RecA splice inh,others
O=C(c1ccco1)N1CCN(Cc2cccc(C(F)(F)F)c2)CC1,.,.,.,6,1.5,
COc1ccc(-c2cc(C(F)(F)F)nc(SCC(N)=O)n2)cc1,-16%,-13,-2,1,1.3,

# Only part of the results is shown; the hit share may differ from the screen's.
